CRE-bla Fsk: alters forskolin-stimulated CRE reporter signaling in CHO cells. CHO CRE-bla reporter (cAMP response element driving beta-lactamase), forskolin EC10, beta-lactamase ratio. Potency, µM (doses to about 38.2 µM), for the others: at the highest dose activity change, negative = inhibition, hits mostly activators. hit rate 2.5% among 71,000. AID 662; active = well fitted activation curve with a large enough effect in the signal ratio, with a control signal flat, not every such curve was filed as active; inconclusive = small, poorly fitted or top-dose-only effect, or effect the other way, or a change in a side signal; the % refers to the signal ratio; also: potency is read from the fitted curve at half-maximal effect; % of control where 0% means no effect
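Modulation of forskolin-driven signalling is measured in CHO cells carrying a CRE-controlled beta-lactamase reporter. Cells are stimulated with EC10 NKH 477 in the presence of titrated compound for 3 h at 37 °C, then loaded with CCF4 for 2 h at room temperature.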
15-hLO inh: inhibitors of human 15-lipoxygenase (ALOX15) | hit rate 1.4% among 74,000 | purified 15hLO-1, xylenol orange hydroperoxide absorbance | P16050 | AID 887 | Potency, µM (titrated, usually from 57.1 µM), without a hit: at the top dose activity change, negative = inhibition, usual class: inhibitors; also: potency is read from the fitted curve at half-maximal effect; % is scaled to controls: 0 for no effect and ±100 for the full control effect; nearly all actives have a fitted effect of over 55% in size
Target sequence (P16050 whole entry, looked up): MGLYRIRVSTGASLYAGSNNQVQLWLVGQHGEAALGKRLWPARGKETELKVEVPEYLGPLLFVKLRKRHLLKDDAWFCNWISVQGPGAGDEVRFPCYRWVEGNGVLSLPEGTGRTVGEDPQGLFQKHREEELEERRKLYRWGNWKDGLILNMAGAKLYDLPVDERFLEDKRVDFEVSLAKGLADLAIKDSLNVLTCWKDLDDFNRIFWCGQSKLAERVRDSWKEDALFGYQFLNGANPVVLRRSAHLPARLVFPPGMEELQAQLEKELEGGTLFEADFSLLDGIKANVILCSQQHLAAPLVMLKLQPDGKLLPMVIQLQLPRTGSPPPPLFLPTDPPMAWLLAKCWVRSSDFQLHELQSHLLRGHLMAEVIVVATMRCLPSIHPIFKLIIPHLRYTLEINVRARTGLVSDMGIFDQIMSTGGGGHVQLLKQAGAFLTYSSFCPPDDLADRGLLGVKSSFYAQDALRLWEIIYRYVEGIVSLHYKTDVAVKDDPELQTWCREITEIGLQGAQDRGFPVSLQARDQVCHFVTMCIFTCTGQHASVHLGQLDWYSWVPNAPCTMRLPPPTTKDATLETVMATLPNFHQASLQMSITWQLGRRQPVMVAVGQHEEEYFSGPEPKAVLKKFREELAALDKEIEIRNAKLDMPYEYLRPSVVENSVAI
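Inhibition is scored from a chromogenic endpoint. After 15 min enzyme-compound contact, arachidonic acid (50 uM final) reacts 6 min with 40 nM 15hLO-1 at room temperature, then Fe-XO reagent is added for 30 min and absorbance ratio recorded.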
TexasRed autofl: compounds fluorescent in Texas Red spectral region. Compound fluorescence, Texas Red channel, 547/618 nm; active compounds read high. max dye-equivalent concentration, M. hit rate 0.06% among 59,000. AID 587; in the data active = max dye-equivalent concentration above about 10 nM; inconclusive = between about 1.1 nM and that limit
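Spectral interference profiling: each compound concentration's relative fluorescence, read with a 547 nm excitation and 618 nm emission filter pair, was normalized to a per-plate Texas Red standard curve.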
Rhodamine autofl: compound autofluorescence in rhodamine spectral region; Rhodamine-region fluorescence, 547/598 nm, Tris buffer; active compounds read high; max dye-equivalent concentration, M; hit rate 0.05% among 59,000; AID 594; in the data active = max dye-equivalent concentration above about 11 nM; inconclusive = between about 1.1 nM and that limit
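Compounds in 100 mM Tris buffer, pH 8.0, were incubated 15 min at room temperature, then read at 547 nm excitation and 598 nm emission. Fluorescence was normalized against a per-plate six-point rhodamine standard curve as dye-equivalent concentration.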
HBB splicing: alters splicing of the hemoglobin beta chain; hit rate 0.06% among 65,000; HBB splicing reporter cell assay, activation; EGFP reporter with mutant IVS2-654 intron; response scale: normalised to 500 nM splice-correcting PNA; Potency, µM (top dose mostly 46.1 µM), without a hit: at the highest dose activation, usual class: activators; also: potency is read from the fitted curve at half-maximal effect; 0% is about no effect
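Compounds were applied for 2 days to HeLa EGFP-654 cells, 500/well in Optimem with 2% FCS. The reporter's EGFP is disrupted by mis-splicing of beta-globin intron IVS2-654. Readout: summed well GFP fluorescence from 488 nm laser scanning; reference was 500 nM antisense […] 654 PNA.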
ERK AVP inh: blocks ERK signaling stimulated by vasopressin; HEK293-V1b, vasopressin-stimulated pERK AlphaScreen; Potency, µM (doses to about 57.5 µM), inactives show at the highest dose activity, negative = inhibition, hits mostly inhibitors; hit rate 0.99% among 72,000; also: potency is read from the fitted curve at half-maximal effect; % is scaled to controls: 0 for no effect and ±100 for the full control effect; nearly all actives have a fitted effect of over 55% in size
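qHTS, compounds titrated on V1b-expressing HEK293 cells. Preincubation 30 min at 37C, vasopressin 25 nM for 5 min, lysis 10 min, bead incubation 5 hr at room temperature.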
* marks the source's active call; other numbers are inactive results; i = inactive; ? = inconclusive; · = no result given; & = joins results of further samples; [ ] = dose if it differs, or a comment. Unless noted, calls follow the shape of the dose curve; as a rule, active = well fitted curve in the direction sought with a large enough effect; inconclusive = small, poorly fitted or top-dose-only effect, or another doubt; inactive = no such curve, though single readings can be large; an effect the other way counts as inactive or inconclusive. This is a subset, so the mix of outcomes need not match the whole.

1: C[C@@H]1O[C@@H](O[C@H]2C[C@@H](O)[C@]3(CO)[C@@H]4[C@@H](O)C[C@]5(C)[C@H](C6=CC(=O)OC6)CC[C@@]5(O)[C@H]4CC[C@@]3(O)C2)[C@H](O)[C@H](O)[C@@H]1O
2: CN(C)[C@@H]1C(=O)C(C(N)=O)=C(O)[C@@]2(O)C(=O)C3=C(O)c4c(O)cccc4[C@@](C)(O)[C@H]3C[C@@H]12
3: CN(C)[C@@H]1C(=O)C(C(N)=O)=C(O)[C@]2(O)C(=O)C3=C(O)c4c(O)ccc(Cl)c4[C@](C)(O)[C@H]3C[C@@H]12
4: c1ccc2c(NC3=NCCS3)cccc2c1
5: C[N+]1(C)[C@@H]2CC(OC(=O)[C@H](CO)c3ccccc3)C[C@H]1[C@@H]1O[C@@H]12 (some centres undefined)
6: COc1ccc2c3c1O[C@H]1C[C@H](O)C=C[C@@]31CCN(C)C2
7: c1ccc(Nc2cccc3ccccc23)cc1
8: Cc1cccc([N+](=O)[O-])c1

Screen / compound no.,1,2,3,4,5,6,7,8
ERK AVP inh,-4%,·,18%[25.7 µM],33%[activator],·,4%,6%,-8%
TexasRed autofl,i,i,i,?,i,i,·,·
Rhodamine autofl,i,i,i,i,i,i,·,·
15-hLO inh,-5%,·,11%[25.6 µM],-5%,·,5%[25.6 µM],?,-9%
HBB splicing,5.4%,·,-0.1%[20.6 µM],-1.3%,·,·,1.5%,0.6%
CRE-bla Fsk,1%,·,2%[17.1 µM],11%,·,-10%&-4%&-16%,?,-3%

9: O=c1oc2ccccc2c(O)c1Cc1c(O)c2ccccc2oc1=O
10: CC1O[C@@H](OC2CC(O)[C@@]3(CO)C4C(O)C[C@@]5(C)C(C6=CC(=O)OC6)CC[C@]5(O)C4CC[C@]3(O)C2)C(O)C(O)C1O (some centres undefined)
11: C=CCN1CC[C@]23c4c5ccc(O)c4OC2C(=O)CC[C@]3(O)C1C5 (some centres undefined)
12: CCOC(=O)c1c(N)n(Cc2ccco2)c2nc3ccccc3nc12
13: CC(C)(c1ccc(OCC2CO2)cc1)c1ccc(OCC2CO2)cc1 (centres undefined)
14: O=C(CCCN1CCC2(CC1)C(=O)NCN2c1ccccc1)c1ccc(F)cc1
15: Oc1ccc(Cl)cc1
16: NCC1(CC(=O)O)CCCCC1

Screen / compound no.,9,10,11,12,13,14,15,16
ERK AVP inh,21%,-12%,-25%,7%,0%,-10%,17%,-5%
TexasRed autofl,i,·,·,·,·,?,·,?
Rhodamine autofl,i,·,·,·,·,i,·,i
15-hLO inh,3%,0%,0%,?,-19%,-11%[25.6 µM],-11%,7%
HBB splicing,0.1%[20.6 µM],·,·,2.5%[9.22 µM],12%,2.3%[20.6 µM],-0.8%,1.3%[20.6 µM]
CRE-bla Fsk,24%[17.1 µM],·,·,?,-14%,?,-7%,-13%

Ten consecutive entries from above, quoted:
7: c1ccc(Nc2cccc3ccccc23)cc1
8: Cc1cccc([N+](=O)[O-])c1
9: O=c1oc2ccccc2c(O)c1Cc1c(O)c2ccccc2oc1=O
10: CC1O[C@@H](OC2CC(O)[C@@]3(CO)C4C(O)C[C@@]5(C)C(C6=CC(=O)OC6)CC[C@]5(O)C4CC[C@]3(O)C2)C(O)C(O)C1O (some centres undefined)
11: C=CCN1CC[C@]23c4c5ccc(O)c4OC2C(=O)CC[C@]3(O)C1C5 (some centres undefined)
12: CCOC(=O)c1c(N)n(Cc2ccco2)c2nc3ccccc3nc12
13: CC(C)(c1ccc(OCC2CO2)cc1)c1ccc(OCC2CO2)cc1 (centres undefined)
14: O=C(CCCN1CCC2(CC1)C(=O)NCN2c1ccccc1)c1ccc(F)cc1
15: Oc1ccc(Cl)cc1
16: NCC1(CC(=O)O)CCCCC1

Screen / compound no.,7,8,9,10,11,12,13,14,15,16
ERK AVP inh,6%,-8%,21%,-12%,-25%,7%,0%,-10%,17%,-5%
TexasRed autofl,·,·,i,·,·,·,·,?,·,?
Rhodamine autofl,·,·,i,·,·,·,·,i,·,i
15-hLO inh,?,-9%,3%,0%,0%,?,-19%,-11%[25.6 µM],-11%,7%
HBB splicing,1.5%,0.6%,0.1%[20.6 µM],·,·,2.5%[9.22 µM],12%,2.3%[20.6 µM],-0.8%,1.3%[20.6 µM]
CRE-bla Fsk,?,-3%,24%[17.1 µM],·,·,?,-14%,?,-7%,-13%

High-throughput results deposited in PubChem by National Center for Advancing Translational Sciences (NCATS).
